HPGD inh – qHTS Assay for Inhibitors of HPGD (15-Hydroxyprostaglandin Dehydrogenase); 15-hydroxyprostaglandin dehydrogenase [NAD(+)] (Homo sapiens), P15428; AID 894, 2007; 150,000 compounds, 4.3% hits; purified HPGD, NADH fluorescence kinetic, PGE2 substrate; Potency, µM, for the others: top-dose activity change, negative = inhibition, hits mostly inhibitors; active = well fitted inhibition curve with a large enough effect (not every such curve was filed as active); inconclusive = small, poorly fitted or top-dose-only effect, or another doubt; inactive = no such curve, though single readings can be large or run the other way;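 also: top concentration of the series not given in the record; plate controls included wells without enzyme; inactives centre near -10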
Target sequence (P15428 whole entry, looked up): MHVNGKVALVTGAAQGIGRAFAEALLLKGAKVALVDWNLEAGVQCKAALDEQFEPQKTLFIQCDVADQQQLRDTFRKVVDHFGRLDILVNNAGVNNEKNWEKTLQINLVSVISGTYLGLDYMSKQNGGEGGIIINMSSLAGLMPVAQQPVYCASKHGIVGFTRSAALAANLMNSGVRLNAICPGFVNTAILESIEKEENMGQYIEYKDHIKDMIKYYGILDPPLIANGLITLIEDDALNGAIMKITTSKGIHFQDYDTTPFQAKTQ
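20 nM HPGD preincubated 15 min at room temperature with compound in 50 mM Tris-HCl pH 8, 0.01% Tween 20. Started with 1 mM NAD+ and 30 uM prostaglandin E2; NADH fluorescence (360/450 nm) read 5 times over 30-s intervals, last minus first.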
* marks the source's active call; other numbers are inactive results; & = joins results of further samples. % is scaled to controls: 0 for no effect and ±100 for the full control effect; potency is read from the fitted curve at half-maximal effect. Not all compounds are listed; the hit share may differ from the screen's.

What do the screens show for `CN(CC(=O)Nc1sccc1C#N)Cc1ccccc1`?
HPGD inh: inconclusive

How did CC1(C)CC(=O)C2=C(C1)Nc1[nH]c(=S)[nH]c(=O)c1C2c1ccccc1 (configuration not stated) do in these assays?
HPGD inh: 8.9µM*

What do the screens show for `CCOc1cc(-c2c(C)c(CC)nc(N)c2C#N)ccc1O`?
HPGD inh: 1%

Results for CCCCn1c(SCC(=O)NCCc2ccc(OC)c(OC)c2)nc2c1c(=O)n(C)c(=O)n2C ?
HPGD inh: -7%

How did CCOC(=O)c1nc(NCc2cccnc2)c2ccccc2n1 do in these assays?
HPGD inh: -6%

Results for C=CCn1c(CCNC(=O)c2cccs2)nnc1SCC(=O)Nc1cccc(C(C)=O)c1 ?
HPGD inh: 0%

How did O=C(CSc1n[nH]c(=O)[nH]c1=O)c1ccccc1 do in these assays?
HPGD inh: -26%

How did COc1ccc(C(=O)Nc2ccc(OC)c(OC)c2)cc1 do in these assays?
HPGD inh: -10%

How did CCOC(=O)C1C(c2ccc(O)c(O)c2)NC(=S)NC1(O)C(F)(F)F (configuration not stated) do in these assays?
HPGD inh: -11%

What do the screens show for `COc1ccc(Oc2ncc3nc(C)c(=O)n(CCc4ccccc4)c3n2)cc1`?
HPGD inh: -5%

What do the screens show for `CCCCNC(=S)N/N=C1\C(=O)c2cccc3cccc1c23`?
HPGD inh: -6%

How did O=C1CC(c2ccccc2)n2nc(N3C(=O)CCC3=O)nc2N1 (configuration not stated) do in these assays?
HPGD inh: -1%

What do the screens show for `CCO/C=C1\N=C(c2ccc(F)cc2)OC1=O`?
HPGD inh: 2%

What do the screens show for `O=C1CCCC/C1=C/Nc1ccc2c(c1)OCO2`?
HPGD inh: -19%

Results for O=C(O)C1CC(O)CN1C(=O)c1ccco1 (configuration not stated) ?
HPGD inh: -9%

How did Cn1c(=O)nc2n(Cc3ccccc3)c3cccc(Cl)c3cc-2c1=O do in these assays?
HPGD inh: inconclusive

Results for OB(O)O ?
HPGD inh: -17%

How did Cc1cccnc1NC(=O)C12CCC(C)(C(=O)O1)C2(C)C (configuration not stated) do in these assays?
HPGD inh: -9%

Results for Cc1cccc(N2CCN(C(=O)c3c(C)nn(Cc4ccccc4Cl)c3C)CC2)c1C ?
HPGD inh: -19%

Results for Sc1oc(-c2ccccc2)cc1C=Nc1ccccc1 ?
HPGD inh: -10%

Results for COc1ccc(-c2nn(-c3ccccc3)cc2/C=N/NC(N)=S)cc1OC ?
HPGD inh: -28%

What do the screens show for `CC1C(c2ccccc2)=[N+]([O-])C2(CCCCC2)N1O` (configuration not stated)?
HPGD inh: -12%

How did COc1ccc2oc(C(=O)OCC(=O)c3ccc4c(c3)OCCO4)c(C)c2c1 do in these assays?
HPGD inh: inconclusive

Results for NS(=O)(=O)c1ccc(NC(=O)Cn2ncc3c2-c2ccccc2OC3)cc1 ?
HPGD inh: -11%

How did Cc1nn(-c2ccccc2)c2sc(C(=O)C(C#N)c3ccccn3)cc12 (configuration not stated) do in these assays?
HPGD inh: -13%

Results for COc1cc(NC(=O)C2CC(=O)NC3=C2C(=O)CCC3)c(OC)cc1Cl (configuration not stated) ?
HPGD inh: -12%

What do the screens show for `CCOc1ccccc1-c1nc2c([nH]1)c(=O)n(C)c(=O)n2C`?
HPGD inh: inconclusive

Results for Cc1ccc(NC(=O)c2cc(N(C)C)ccc2[P+](=O)O)cc1 ?
HPGD inh: -12%

What do the screens show for `O=C(COC(=O)/C=C/c1ccccc1[N+](=O)[O-])Nc1ccc(OC(F)F)cc1`?
HPGD inh: -10%

How did CCCCN(CC)CCCNC(=O)c1cc2cc3ccc(OC)cc3nc2o1 do in these assays?
HPGD inh: inconclusive

How did Cc1ccc(C)c(OCC(=O)NCCN(C)C)c1 do in these assays?
HPGD inh: -2%

What do the screens show for `COc1cc(NC(=O)C2CC(c3cccc(OC)c3OC)=NO2)cc(OC)c1OC` (configuration not stated)?
HPGD inh: inconclusive

What do the screens show for `Cc1ccc(S(=O)(=O)N2CCN(CC(=O)N/N=C/c3ccco3)CC2)cc1`?
HPGD inh: -2%

How did Cc1ccc(C(=O)C2=C(O)C(=O)N(CCCN3CCOCC3)C23C(=O)N(C)c2ccccc23)o1 (configuration not stated) do in these assays?
HPGD inh: -5%

What do the screens show for `Cn1c(Cl)c(/C=N/OC(=O)c2ccc(Cl)cc2)c2ccccc21`?
HPGD inh: inconclusive

Results for Cn1nc(-c2ccccc2)c(-c2nc(-c3cccc(Cl)c3)no2)c1Cl ?
HPGD inh: -8%

What do the screens show for `COC(=O)C(C(=O)OC)[C@@H](NC=O)c1ccccc1`?
HPGD inh: -2%

What do the screens show for `COc1ccc(C2Nc3ccc4ccccc4c3-c3c2c(=O)oc2ccccc32)cc1` (configuration not stated)?
HPGD inh: inconclusive

Results for COC(=O)c1cc(OC)c(OC)cc1NC(=S)N1CCCC(CO)C1 (configuration not stated) ?
HPGD inh: 0%

Results for CCOC(=O)C1CCN(Cc2ccc(F)cc2)CC1 ?
HPGD inh: 0%

What do the screens show for `CC(=O)OC(C(=O)NC1CCCCC1)c1ccccc1` (configuration not stated)?
HPGD inh: -5%

Results for C/C(=N/OCO/N=C(\C)c1ccccc1)c1ccccc1 ?
HPGD inh: -5%

What do the screens show for `O=C(Nc1ccccc1)c1ccccc1CCc1ccccc1`?
HPGD inh: -15%

What do the screens show for `O=C(c1cnccn1)N1CCC2(CC1)CN(c1ccncc1)C2`?
HPGD inh: -10%

How did COC(=O)c1ccc(CSc2nnc(NC(=O)C3CCCO3)s2)cc1 (configuration not stated) do in these assays?
HPGD inh: -18%

How did C/C(=C\C(=O)c1ccccc1)Nc1ccc(N2CCOCC2)cc1 do in these assays?
HPGD inh: -9%

How did O=C1CCC(=O)N1CCC(c1ccc(F)cc1)c1ccco1 (configuration not stated) do in these assays?
HPGD inh: -9%

What do the screens show for `CC(C)c1ccc(NC(=O)CSc2ncccc2C(=O)Oc2cccc([N+](=O)[O-])c2)cc1`?
HPGD inh: -27%

Results for COC(=O)C1=NNCC12CC(=O)N(c1ccc(Br)cc1)C2=O (configuration not stated) ?
HPGD inh: -3%

How did Cc1onc(-c2c(F)cccc2Cl)c1C(=O)Nc1cccc(Cn2cccn2)c1 do in these assays?
HPGD inh: 2%

How did CCN1C(=O)C(CC(=O)N2CCN(C(c3ccccc3)c3ccccc3)CC2)N(CC)C1=O (configuration not stated) do in these assays?
HPGD inh: -4%

What do the screens show for `CC(C)C[C@@H](CC(=O)N[C@@H](CCC(=O)O)CC(=O)O)NC(=O)[C@@H]1CCCC[C@H]1NC(=O)C[C@@H](NC(=O)C[C@H](Cc1c[nH]c2ccccc12)NC(=O)[C@@H]1CNCC[C@H]1N)C(C)C`?
HPGD inh: -7%

Results for CCN(Cc1ccccc1)C(c1cc2cc(C)cc(C)c2[nH]c1=O)c1nnnn1CCOC (configuration not stated) ?
HPGD inh: -3%

Results for COc1ccc(N/N=C(\C#N)C(N)=O)cc1 ?
HPGD inh: -6%

Results for CC(C)c1nnc(NC(=O)CN2C(=O)c3ccccc3C2=O)s1 ?
HPGD inh: -5%

What do the screens show for `COc1cc(-c2nnc(COC(=O)C3c4ccccc4Oc4ccccc43)o2)cc(OC)c1OC`?
HPGD inh: -8%

How did CCC(C)(C)NC(=O)C(OC(=O)c1ccco1)c1ccccc1OC (configuration not stated) do in these assays?
HPGD inh: -9%

How did Cc1ccc(NC(=O)CCN2C(=O)CSC2=O)cc1 do in these assays?
HPGD inh: -9%

Results for Cc1ccc(C2=[N+]([O-])C(C)(C)N(O)C2(C)C)cc1 ?
HPGD inh: -3%

Results for O=C(N/N=C\c1c(O)ccc2ccccc12)c1ccc(Cn2cccn2)o1 ?
HPGD inh: -23%

What do the screens show for `COCCn1c(=O)c(-c2ccc(F)cc2)nc2cncnc21`?
HPGD inh: -15%

Results for O=C(CNC(=O)Cn1cnc2sc3c(c2c1=O)CCCC3)NCc1ccccn1 ?
HPGD inh: -14%

How did O=C(Nn1cnnc1)c1csc2ccccc12 do in these assays?
HPGD inh: -7%

How did O=C(O)COc1cccc(NC(=O)c2ccccc2)c1 do in these assays?
HPGD inh: -2%

What do the screens show for `Cc1ccc(C2CC(=O)Oc3ccc(C(C)(C)C)cc32)cc1` (configuration not stated)?
HPGD inh: -23%

What do the screens show for `CCCC(C)NS(=O)(=O)c1ccc(OC)c(C)c1` (configuration not stated)?
HPGD inh: -7%

How did CCOC(=O)C(Sc1ncnc2c1sc1nc(N3CCOCC3)c3c(c12)CCCC3)c1ccccc1 (configuration not stated) do in these assays?
HPGD inh: inconclusive

How did Cc1cc2c(cc1C)NC(CC(=O)NCc1ccccc1)C(=O)N2 (configuration not stated) do in these assays?
HPGD inh: inconclusive

Results for COc1ccc2nc(NC(=O)Cc3ccc(OC)c(S(=O)(=O)N4CCOCC4)c3)sc2c1 ?
HPGD inh: -4%

What do the screens show for `CCN(CC)c1ccc(C(=O)OCC(=O)Nc2sccc2C#N)cc1`?
HPGD inh: inconclusive

What do the screens show for `O=C(c1cc(NC(=O)C23CC4CC(CC(C4)C2)C3)cc(NC(=O)C23CC4CC(CC(C4)C2)C3)c1)N1CCCCC1`?
HPGD inh: -14%

What do the screens show for `Cc1ccccc1NC(=O)c1cc(S(=O)(=O)N2CCCCC2)cs1`?
HPGD inh: -15%

How did COc1ccc(C)cc1S(=O)(=O)NC1CCCCC1C (configuration not stated) do in these assays?
HPGD inh: -3%

What do the screens show for `CCOC(=O)N1CCN(CC(O)COc2c(OC)cccc2OC)CC1` (configuration not stated)?
HPGD inh: -14%

Results for CCOCCCNc1nc2ccccc2[nH]1 ?
HPGD inh: 2%

What do the screens show for `O=C(Nc1cc(=O)[nH]c2ncnn12)c1ccccc1Cl`?
HPGD inh: 22µM*

What do the screens show for `Cc1ccc(-n2cc(-c3ccccc3)c3c(NN4CCOCC4)ncnc32)cc1`?
HPGD inh: -25%

Results for O=C(NC(=S)NNC(=O)c1ccccc1[N+](=O)[O-])c1ccccc1 ?
HPGD inh: 32µM*

How did CCOc1cc(C2CC(=O)Nc3cc(C)c(C)cc32)ccc1O (configuration not stated) do in these assays?
HPGD inh: -2%

How did CCCc1nc2ccccc2c(C(=O)OCC(=O)NCc2ccc3c(c2)OCO3)c1CC do in these assays?
HPGD inh: -8%

How did Cc1nnc(C)n1/N=C/c1cc(Br)ccc1O do in these assays?
HPGD inh: -4%

How did CCn1c(SC)nc2c(c1=O)SC(C)C2 (configuration not stated) do in these assays?
HPGD inh: -3%

What do the screens show for `COc1cnc(-c2ccccc2)nc1Oc1cccc(C)c1C`?
HPGD inh: -9%

How did Cc1ccc(S(=O)(=O)N=Nc2c(O)[nH]c3ccccc23)cc1C do in these assays?
HPGD inh: -10%

Results for COc1cccc2cc(C(=O)N(C)C)c(=O)oc12 ?
HPGD inh: -11%

How did CCN(CC)S(=O)(=O)c1ccc(C(=O)NCCSc2c[nH]c3ccccc23)cc1 do in these assays?
HPGD inh: -17%

What do the screens show for `Cc1nnc(SCC(=O)Nc2ncc3c(n2)CC(c2ccccc2)CC3=O)s1` (configuration not stated)?
HPGD inh: -6%

How did O=C(c1ccco1)N1CCN(C(=O)c2cnn3c2NC(c2cccs2)CC3C(F)(F)F)CC1 (configuration not stated) do in these assays?
HPGD inh: -3%

What do the screens show for `CCCCNC(=O)c1onc(CSc2cccc(C)c2)c1C(=O)O`?
HPGD inh: -18%

How did CCOC(=O)N1CCC(NC(=O)CSc2cc(=O)n(CC)c3ccccc23)CC1 do in these assays?
HPGD inh: -11%

How did COc1cccc(C(=O)CSc2nnc(CNS(C)(=O)=O)n2-c2ccc(C)cc2)c1 do in these assays?
HPGD inh: -8%

How did COc1cc2c(c(OC)c1OC)-c1ccc(OC)c(=O)cc1[C@H](NC(C)=O)CC2 do in these assays?
HPGD inh: -2%&-3%

What do the screens show for `O=C(CSCc1ccc(Cl)cc1)N/N=C/c1ccccc1`?
HPGD inh: -16%

Of the compounds above, these contain a furan ring, fused or not.
Results for O=C(O)C1CC(O)CN1C(=O)c1ccco1 (configuration not stated) ?
HPGD inh: -9%

Results for Sc1oc(-c2ccccc2)cc1C=Nc1ccccc1 ?
HPGD inh: -10%

How did COc1ccc2oc(C(=O)OCC(=O)c3ccc4c(c3)OCCO4)c(C)c2c1 do in these assays?
HPGD inh: inconclusive

How did CCCCN(CC)CCCNC(=O)c1cc2cc3ccc(OC)cc3nc2o1 do in these assays?
HPGD inh: inconclusive

What do the screens show for `Cc1ccc(S(=O)(=O)N2CCN(CC(=O)N/N=C/c3ccco3)CC2)cc1`?
HPGD inh: -2%

How did Cc1ccc(C(=O)C2=C(O)C(=O)N(CCCN3CCOCC3)C23C(=O)N(C)c2ccccc23)o1 (configuration not stated) do in these assays?
HPGD inh: -5%

How did O=C1CCC(=O)N1CCC(c1ccc(F)cc1)c1ccco1 (configuration not stated) do in these assays?
HPGD inh: -9%

How did CCC(C)(C)NC(=O)C(OC(=O)c1ccco1)c1ccccc1OC (configuration not stated) do in these assays?
HPGD inh: -9%

Results for O=C(N/N=C\c1c(O)ccc2ccccc12)c1ccc(Cn2cccn2)o1 ?
HPGD inh: -23%

How did O=C(c1ccco1)N1CCN(C(=O)c2cnn3c2NC(c2cccs2)CC3C(F)(F)F)CC1 (configuration not stated) do in these assays?
HPGD inh: -3%

High-throughput results from PubChem.
